# High-throughput results as filed in PubChem BioAssay.
# CDC25B CDK2 inh = human CDC25B-CDK2/CyclinA binding inhibition | HTRF CDC25B-CDK2/CyclinA binding, anti-His/anti-Flag; active compounds read high | z-score (test concentration not listed) | 0.72% of 94,000 active | AID 1259370;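 further: score is relative to mean and SD of negative controls; strong numbers were not always called active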
# HIV TAR-Tat = HIV-1 TAR-Tat binding disruption | HIV-1 TAR RNA, Tat peptide displacement FRET; active compounds read high | z-score (test concentration not listed) | 0.6% of 100,000 active;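 further: score is relative to mean and SD of negative controls; some compounds called inactive have numbers as strong as hits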
# * marks the source's active call; other numbers are inactive results; nt = no result given; & = joins results of further samples.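 How the source made its calls: active means z-score from 3 up in half or more of its runs; inactive means the rest.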
# Value order: HIV TAR-Tat, CDC25B CDK2 inh
1: O=C(c1ccco1)N1c2nc(-c3ccccc3)nn2C2(CCCCC2)[C@@H]2CCCC[C@@H]21
    1.2, -0.67
2: CN1C(C(=O)c2ccccc2)=C(NC(=O)Cc2ccccc2)c2ccccc2S1(=O)=O
    0.58, -0.77
3: C=CCNC(=O)c1ccc2c(c1)S(=O)(=O)N=C(C)N2CCC
    0.46, nt
4: Cc1cc(NC(=O)c2cccs2)c([N+](=O)[O-])cc1C
    nt, -1.2
5: c1ccc(CN2CCN(c3nn4nnnc4c4ccccc34)CC2)cc1
    0.09, nt
6: CC1Sc2ccc(S(=O)(=O)CCC(=O)Nc3ccc(Cl)cc3F)cc2NC1=O (stereo not drawn)
    2.6, nt
7: COc1ccc(NS(=O)(=O)c2c(C)[nH]c(=O)[nH]c2=O)cc1OC
    -0.65, nt
8: O=c1cc(Cn2c(=O)n3nc(-c4ccccc4)nc3c3ccccc32)nc2ccc(Cl)cn12
    -0.32, 0.47
9: O=S(=O)(Oc1ccc(F)cc1F)c1cccc(S(=O)(=O)Oc2ccc(F)cc2F)c1
    nt, 0.13
10: CCOC(=O)c1c(C)oc2nc(C)nc(N3CC=C(c4ccccc4)CC3)c12
    -1.1, nt
11: Cc1cc(NC(=O)NCc2c(-n3cccc3)sc3c2CCN(C)C3)ccc1Br
    -7.8, nt
12: CCOc1ccc(-c2nc3ncccn3c2NC2CCC(C)CC2)cc1 (stereo not drawn)
    -0.86, nt
13: Cc1cccc(C)c1OCC(O)CN1C(=O)NC(C)(C)C1=O (stereo not drawn)
    -0.68, -1.6
14: Cc1nc2c(C)cccn2c(=O)c1Cc1nnc(SCC(=O)Nc2ccccc2)n1C
    -0.92, -1.2
15: Cn1c(-c2ccc(Br)cc2)cnc1NCc1ccc(F)cc1
    -0.4, -1.7

# By substructure: those above with sulfur (8)
# Value order: HIV TAR-Tat, CDC25B CDK2 inh
2: CN1C(C(=O)c2ccccc2)=C(NC(=O)Cc2ccccc2)c2ccccc2S1(=O)=O
    0.58, -0.77
3: C=CCNC(=O)c1ccc2c(c1)S(=O)(=O)N=C(C)N2CCC
    0.46, nt
4: Cc1cc(NC(=O)c2cccs2)c([N+](=O)[O-])cc1C
    nt, -1.2
6: CC1Sc2ccc(S(=O)(=O)CCC(=O)Nc3ccc(Cl)cc3F)cc2NC1=O (stereo not drawn)
    2.6, nt
7: COc1ccc(NS(=O)(=O)c2c(C)[nH]c(=O)[nH]c2=O)cc1OC
    -0.65, nt
9: O=S(=O)(Oc1ccc(F)cc1F)c1cccc(S(=O)(=O)Oc2ccc(F)cc2F)c1
    nt, 0.13
11: Cc1cc(NC(=O)NCc2c(-n3cccc3)sc3c2CCN(C)C3)ccc1Br
    -7.8, nt
14: Cc1nc2c(C)cccn2c(=O)c1Cc1nnc(SCC(=O)Nc2ccccc2)n1C
    -0.92, -1.2

# Continued:
# Value order: HIV TAR-Tat, CDC25B CDK2 inh
16: O=C(NCCCN1CCCC1=O)C1CCN(c2nc3ccccc3n3cccc23)CC1
    0.32, nt
17: O=C(O)C1Nc2ccccc2S(=O)(=O)N1 (stereo not drawn)
    -0.39, -1.4
18: CC(=O)Nc1ccc(S(=O)(=O)Nc2nc3ccccc3nc2Nc2ccc(C(=O)O)c(O)c2)cc1
    nt, -0.83
19: Nc1nccc2c1ncn2[C@@H]1C=C(CO)[C@H](O)C1O (stereo partly drawn)
    2.3, nt
20: Cc1occc(=O)c1OCc1ccc(Cl)cc1
    nt, -1.1
21: CC1=C(c2ccc(C)cc2)S(=O)(=O)N=C1Nc1cc(C)cc(C)c1
    3, -0.62
22: COc1ccc(C2NC(=S)NC3=C2C(=O)CC(C)(C)C3)cc1 (stereo not drawn)
    nt, 0.99
23: Fc1ccc(CNCc2cn3c(-c4ccc(Br)cc4)nnc3s2)cc1
    2.1, nt
24: O=C(NCc1ccc2c(c1)OCO2)C(=O)NCc1n[nH]c(=O)c2ccccc12
    1, nt
25: O=S(=O)(Nc1ccc(F)c(Cl)c1)c1ccc(-c2cnc(C3CC3)o2)cc1
    1.5, nt
26: CCCC(=O)Nc1nc2ccccc2o1
    0.71, nt
27: Cc1ccc(C)c(S(=O)(=O)N2CCN(S(=O)(=O)c3cc(C)ccc3C)C(C)C2)c1 (stereo not drawn)
    0.64, -2
28: c1cncc(-c2nc3c4ccccc4nc(NCCCN4CCOCC4)n3n2)c1
    1.8, -0.38
29: CC(C)Oc1ccc(C2CC(=O)Nc3nc(SCc4ccc(Cl)cc4)[nH]c(=O)c32)cc1 (stereo not drawn)
    -0.86, -1.6
30: c1ccc(-c2noc(-c3cc(-c4ccc5ccccc5c4)n[nH]3)n2)cc1
    -0.33, nt
31: c1ccc2[nH]c(SCCN3CCOCC3)nc2c1
    3.3, -1.7
32: O=c1nc(-c2ccccc2)c2cc(Br)ccc2[nH]1
    nt, -1
33: Fc1ccccc1Cc1cn2cc(-c3ccc(Cl)cc3)nc2s1
    0.84, -1.5
34: Cc1cc2oc(=O)c3c(c2c2occ(-c4ccccc4)c12)CCC3
    nt, -1.7
35: CC(C)CN(CC(C)C)C(=O)Cn1c(=O)oc2ccccc21
    nt, -0.29
36: O=C(Nc1ccc(F)cc1F)NC(c1ccccc1)c1nnc(-c2ccccc2)o1 (stereo not drawn)
    0.78, nt
37: COc1ccc(-n2ccnc2SCC(=O)NC2CCCCC2)c(OC)c1
    4.6, nt
38: CC(C)c1ccc(N2C(=O)N3CCCN3C2c2ccccc2)cc1 (stereo not drawn)
    -0.14, -2.7
39: O=C(Cn1ncc2c3ccccc3n(Cc3ccc(Cl)cc3)c2c1=O)N1CCCC1
    -1.4, -1.6
40: Cc1ccc2nc(Cl)c(-n3nc(C)cc3C)nc2c1
    1.5, -1.6
41: CCn1nc(-n2cnnc2)c(NS(=O)(=O)c2ccccc2Cl)c1C
    -0.5, -0.97
42: c1ccc(-c2noc(-c3cc(-c4ccco4)n[nH]3)n2)cc1
    0.43, nt
43: CCCc1cc(=O)n2nc(N3CCC(C(=O)NCCCOCC)CC3)sc2n1
    1.6, -0.28
44: CC(=O)OCc1cc(=O)n2nc(C3CCCCC3)sc2n1
    -0.79, nt
45: CCCCCOC(=O)C1=C(C)Nc2nnnn2C1c1ccc(F)cc1 (stereo not drawn)
    -0.32, -1.4
46: Cc1ccc(NC(=O)C2=CC(c3ccc4c(c3)OCO4)=NS(=O)(=O)N2C)cc1
    2.6, -1.4
47: CC(C)N(Cc1nc(-c2ccccc2)no1)S(=O)(=O)c1ccc(F)cc1
    -0.61, -0.97
48: C=CCOC(=O)C1=C(C)Nc2nc(SCC(C)C)[nH]c(=O)c2C1c1cccs1 (stereo not drawn)
    2.8, -1.2
49: CC(Oc1ccc(I)cc1)C(=O)Nc1ccc(Br)cc1 (stereo not drawn)
    nt, -3.4
50: O=C(Nc1noc2ccccc12)c1ccccc1
    2.9, -1.7
51: COc1ccc(Br)c(C(=O)NC(=S)Nc2ccc(F)cc2)c1
    nt, -0.26
52: CC(C)CC(NS(=O)(=O)c1ccc2c(c1)CCCC(=O)N2)C(=O)NC1CCCC1 (stereo not drawn)
    0.44, nt
53: O=C(Cn1nc(C(F)(F)F)c2c1CCC2)NC1CCCC1
    0.92, -2.1
54: Cc1c(Cl)cccc1NC(=O)N1CCC(O)CC1
    nt, -0.43
55: Cc1cc(C)c(S(=O)(=O)Nc2cccc(-c3cn4ccccc4n3)c2)c(C)c1
    -0.03, -1.1
56: COc1cc(C(=O)O[C@H]2C/C(C)=C/CC/C(C)=C/[C@@H](O)[C@H]2C(C)C)ccc1O
    2.2, nt
57: CSc1nc(C)cc(Nc2c(C)cc(C)cc2C)n1
    1.9, -0.83
58: O=C(c1noc2c1COc1ccccc1-2)N1CCN(c2ccccc2)CC1
    1, -0.83
59: O=c1c2c(nc3nc[nH]n13)CCC2
    nt, -0.07
60: COCCCN1C(=O)c2[nH]nc(-c3ccccc3O)c2C1c1ccc(SC)cc1 (stereo not drawn)
    0.74, 0.49
61: Cc1ccc2[nH]cc(CCN3CC(C(=O)Nc4nnc(CC(C)(C)C)s4)CC3=O)c2c1 (stereo not drawn)
    0.55, 1.6
62: CCCC1N=C2c3ccccc3N=C(SCC(=O)N3CCN(c4ccccc4F)CC3)N2C1=O (stereo not drawn)
    0.39, nt
63: Cc1ccc(S(=O)(=O)Nc2nc(N)n(-c3ccccc3)n2)cc1
    nt, -1.6
64: CC(C)C(NC(=O)C1CCN(c2ccc(-c3cccs3)nn2)CC1)c1cccs1 (stereo not drawn)
    -0.44, nt
65: COC(=O)c1cnc(N2CCOCC2)c2ccccc12
    0.24, nt
66: O=C(CSc1ccsc1[N+](=O)[O-])Nc1c(F)cc(F)cc1Br
    2.9, 1.5
67: COc1ccc2[nH]c3c(=O)n(CCCN(C)C4CCCCC4)cnc3c2c1
    0.5, 2.5
68: COc1cc2c(cc1OC)C(c1cccc(Cl)c1)NCC2 (stereo not drawn)
    0.39, 0.58
69: COc1cccc(CSC2=NS(=O)(=O)c3ccc(C)cc3N2)c1
    2.8, nt
70: COc1ccc(CN2C(=O)CN(C3CCCCCC3)C(=O)C2c2ccc(OC)c(OC)c2)cc1 (stereo not drawn)
    nt, -1.6
71: Nc1ccc(-c2nc(-c3ccccc3)co2)cc1
    0.46, nt
72: O=C(c1ccccc1Cl)N(Cc1ccco1)C1CCS(=O)(=O)C1 (stereo not drawn)
    1.8, -0.95
73: CCOC(=O)Nc1ccc2nc3n(c(=O)c2c1)CCCCC3
    1, -0.64
74: Nc1c(C(=O)NCc2ccco2)sc2nc(N3CCCC3)c3c(c12)CCCC3
    -0.97, -1.9
75: COc1ccc(C2=Nn3cnnc3SC2)cc1Br
    1.1, -1.1

# Continuation:
# Value order: HIV TAR-Tat, CDC25B CDK2 inh
76: O=C(Nc1ccccc1)Nc1ccc(Cl)cc1[N+](=O)[O-]
    nt, 1.4
77: Cc1n[nH]c(C)c1S(=O)(=O)N1CCCC(C(=O)N2CCN(c3ccc(F)cc3)CC2)C1 (stereo not drawn)
    nt, -1.9
78: CCN(Cc1ccccc1)c1nc2c(c(=O)n(C)c(=O)n2C)n1CCO
    nt, 1.2
79: Cc1ccc(-c2cc(Cc3ccncc3)c(=O)[nH]n2)cc1
    nt, -2.1
80: Cc1csc(NC(=O)c2c(O)c3c(n(CC(C)C)c2=O)CCCC3)n1
    1.7, nt
81: CCOC(=O)c1c(S(=O)(=O)Nc2ccc(F)cc2F)c(C)n(C)c1C
    0.02, nt
82: C=Cc1ccc(Cn2ccn(-c3ccc(F)c(F)c3)c(=O)c2=O)cc1
    0.83, nt
83: CCOc1ccc(Br)cc1S(=O)(=O)Nc1cccc(-c2ccc(OC)nn2)c1
    1.6, nt
84: Cc1ccc(Nc2ncnc3c2cnn3C)c(Br)c1
    1.8, nt
85: O=C(CSc1nnc2ccccn12)Nc1nsc(-c2ccccc2)n1
    nt, -2.5
86: COc1ccc(C2C(=O)c3ccccc3C2=O)c(OC)c1
    1.8, -1.3
87: Cc1cccc(-c2nc3nc(C)cc(N4CCN(c5ccccc5)CC4)n3n2)c1
    1.3, 0.1
88: O=C1CSc2ccc(S(=O)(=O)N3CCOCC3)cc2N1Cc1cc(=O)n2ccccc2n1
    -1.1, nt
89: CC1(C)CC(=O)c2cn(-c3ccc(Cl)cc3)c(=O)c(C(=O)N3CCC(N4CCCCC4)CC3)c2C1
    1.9, nt
90: Cc1ccc2oc3c(c(=O)c2c1)C(c1ccccc1F)N(Cc1ccc2c(c1)OCO2)C3=O (stereo not drawn)
    -0.66, -2.3
91: CCC(C)NS(=O)(=O)c1ccc(-c2coc(C)n2)cc1 (stereo not drawn)
    2.3, nt
92: Cc1nc2c(c(C)c1CCC(=O)NC1CCCCC1)c(=O)n(C)c(=O)n2C
    -1, -1.1
93: Cc1ccc2c(C)nc(Nc3nc4ccccc4c(=O)[nH]3)nc2c1
    0.61&0.55, 7&1.7
94: O=S(=O)(Nc1ccc(-c2ccc(N3CCCC3)nn2)cc1)c1ccccc1Cl
    0.3, nt
95: CCN(CC)S(=O)(=O)N1CCC(C(=O)N2CCN(Cc3noc4ccccc34)CC2)CC1
    0.93, nt
96: COc1c(Cl)cc([N+](=O)[O-])c(OC)c1C(=O)NC(=O)Nc1c(C)cccc1C
    nt, 0.26
97: O=C(CSc1nnc2c(n1)-c1cccc3cccc-2c13)Nc1ccc(Cl)cn1
    0.49, -1.5
98: CCCCNc1nc2c(S(=O)(=O)c3ccc(Cl)cc3)nnn2c2ccsc12
    0.88, nt
99: Cc1ccc(OCc2cc(=O)n3ccsc3n2)c(C)c1
    0.96, -2.2
100: O=S(=O)(c1ccc(Br)cc1)N1CCN(C/C=C/c2ccccc2)CC1
    0.58, 0.03
101: Cc1ccc(C)c(NC(=O)CSc2nc(C)nc3c2CCC3)c1
    1, -0.19
102: COc1ccc(NC(=O)CCCSc2nc(-c3ccco3)cc(C(F)(F)F)n2)cc1
    0.73, -1.4
103: CC(C)CNc1ncnc2onc(-c3cccc(Cl)c3)c12
    1, -0.71
104: COC(=O)c1sc(N2C(=O)C(O)=C(C(=O)c3cccs3)C2c2ccc(OC)cc2)nc1C (stereo not drawn)
    -0.92, -0.68
105: Cc1ccc(C(=O)CSc2n[nH]c(-c3ccncc3)n2)cc1C
    -1.9, -1.9
106: CC(C)(C)c1ccc(S(=O)(=O)Nc2cccc(C3NC(=O)CS3)c2)cc1 (stereo not drawn)
    -0.33, nt
107: CCN(CC)CCCNC(=O)Cn1ncn2c(cc3sccc32)c1=O
    nt, -1.3
108: CCN(CC)CCNC(=O)Cn1ncn2cccc2c1=O
    0.09, -2.4
109: COc1cc(NC(=O)N2CCn3cccc3C2C)cc(OC)c1 (stereo not drawn)
    -1.6, nt
110: Brc1cccc(-c2nc(-c3cccnc3)no2)c1
    1.4, nt
111: CCOC(=O)C1(C#N)C(c2ccc(OC)cc2)C(c2cccs2)=NN1c1ccc([N+](=O)[O-])cc1 (stereo not drawn)
    nt, 1.4
112: NC(=O)c1c2ccccc2nc2ccccc12
    nt, -2.4
113: Cn1ncc2c(Nc3ccc(Cl)cc3)nc(N3CCOCC3)nc21
    0.3, nt
114: Cc1nc2c([nH]c3ccc(Br)cc32)s1
    nt, 5.7
115: Cc1nc2c3cccnc3nn2c(C)c1CCC(=O)NC(C)CCc1ccco1 (stereo not drawn)
    -3, 0.33
